Screening data (PubChem)
Ab BasE inh – BasE siderophore enzyme inhibitors, primary screen, biochemical, Acinetobacter baumannii ATCC 17978, fluorescence polarization | purified BasE, fluorescence polarization binding displacement | inhibition, % (test concentration not listed) | actives 0.1% (n = 84,000);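 active means both replicates above 25% with normal brightness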;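 further: 0% = negative plate control signal and 100% = positive plate control signal; stock transfer was 100 nL into about 30 µL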
KSHV LANA nucl – inhibitors of KSHV LANA-nucleosome binding, primary screen, biochemical, fluorescence polarization, FITC-LANA1-23, chicken nucleosomes | FITC-LANA1-23 / chicken nucleosome fluorescence polarization; hits give low values | z-score (concentration not given with the values) | actives 0.3% (n = 51,000) | AID 720717, 2013;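 active means both repeat wells score below -2 in polarization z-score versus plate sample wells, excluding overly bright wells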;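 further: 100 nL library stock added to about 30 µL; numbers are from one replicate; some results filed as inactive read as strong as hits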
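Test system: purified chicken nucleosomes with FITC-labelled LANA N-terminal peptide (1-23); Input: 240 nM purified chicken nucleosomes (480 nM peptide binding sites), final; Medium: TEN-BT buffer, pH 7.5; Timing: 10–45 min, room temperature; Technique: fluorescence polarization, 480 nm excitation, 535 nm parallel and perpendicular emission; Replication: duplicates.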
Starred values were filed as active, the others as inactive; . = not tested or not shown. A portion of the library, so the mix of outcomes need not match the whole.

SMILES | Ab BasE inh | KSHV LANA nucl
Cc1ccc(C2=NN(C(=O)CN3CCC(C)CC3)C(c3ccco3)C2)cc1 (stereo unspecified) | -1.2 | -0.0765
C/C(N)=C(/C#N)C(=O)CSc1nc(-c2ccc(C)c(C)c2)cn1-c1ccccc1 | -0.6 | .
COc1ccccc1C1/C(=C(\O)c2ccc(Cl)cc2)C(=O)C(=O)N1CCC(=O)O (stereo unspecified) | 4.3 | -0.301
Cc1c(NS(=O)(=O)c2ccc(Cl)c(C(=O)OC(C)C(=O)N3CCOCC3)c2)c(=O)n(-c2ccccc2)n1C (stereo unspecified) | -0.5 | .
COC(=O)c1cccn1-c1ccc(Br)cc1 | . | -0.291
NNc1nc2ccccc2c(=O)n1Cc1ccccc1 | 1.4 | -0.461
CCOC(=O)C1C(=O)Oc2ccc3ccccc3c2C1C1CCOC1=O (stereo unspecified) | 0.4 | .
CCOC(=O)c1[nH]c(CN2CCN(c3ccc(OC)cc3)CC2)c(C(=O)OCC)c1C | 1.3 | .
Clc1ccc(-n2ccnc2Sc2ncnc3sc4c(c23)CCCC4)cc1 | 4.7 | .
C=CCn1c(N)cc(=O)nc1SCC(=O)OC1CC2CCC1(C)C2(C)C (stereo unspecified) | 1.7 | -0.0135
N#Cc1ccc(Cl)cc1NC(=O)COC(=O)CSc1ncnc2sccc12 | 0.5 | .
CC(Oc1ccccc1)c1ccn[nH]1 (stereo unspecified) | . | -0.144
CCOC(=O)C(=NCC1CCCO1)NNc1cc(Cl)ccc1Cl (stereo unspecified) | -1.1 | .
CN1CCC(N(C)Cc2csc(-c3ccc(Cl)cc3)n2)CC1 | -8.5 | .
CCN(CC)P(=O)(c1nc2ccccc2n1CC)N(CC)CC | 1.8 | .
Cc1c(Cc2ccc3c(c2)OCO3)sc(NC(=O)c2ccco2)c1C(N)=O | 2.6 | -1.09
CCOC(=O)C1=C(C)NC(SCC(=O)N2CCOCC2)=C(C#N)C1c1ccco1 (stereo unspecified) | 0.0 | .
CCOC(=O)NC(=O)c1cn(Cc2ccco2)c(=O)n(Cc2ccccc2)c1=O | -0.4 | .
CCOc1ccc2nc(SCc3ccc(C#N)cc3)[nH]c2c1 | 1.0 | .
CCCS(=O)(=O)NCc1cn2ccc(C)cc2n1 | -1.9 | -0.811

3 consecutive compounds already listed:
SMILES | Ab BasE inh | KSHV LANA nucl
Cc1ccc(C2=NN(C(=O)CN3CCC(C)CC3)C(c3ccco3)C2)cc1 (stereo unspecified) | -1.2 | -0.0765
C/C(N)=C(/C#N)C(=O)CSc1nc(-c2ccc(C)c(C)c2)cn1-c1ccccc1 | -0.6 | .
COc1ccccc1C1/C(=C(\O)c2ccc(Cl)cc2)C(=O)C(=O)N1CCC(=O)O (stereo unspecified) | 4.3 | -0.301

Following part
SMILES | Ab BasE inh | KSHV LANA nucl
CSc1ncc(C(=O)NC2CCN(Cc3ccccc3)CC2)c(C(F)(F)F)n1 | -3.0 | -0.184
CC(C)c1cc(NC(=O)COC(=O)c2ccccc2Oc2ccccc2)on1 | -0.3 | .
O=C1C2=C(c3ccccc3)c3cc(F)ccc3C2Sc2ccccc21 (stereo unspecified) | 1.2 | .
CCN(CC)S(=O)(=O)c1ccc(N=NC2=C(O)CCCC2=O)cc1 | 0.3 | .
N#Cc1ccc(C(N)CC(=O)O)cc1 (stereo unspecified) | . | 0.558
CCCCOc1ccc(OCCNC(=O)c2ncn[nH]2)cc1 | -0.8 | 1.27
Cc1ccc(/C=N/N=C2\CC3CCC2(C)C3(C)C)o1 (stereo unspecified) | 0.6 | .
Cn1[nH]c(=O)c2ncccc2c1=O | 0.7 | 0.498
Cc1nn(-c2ccccc2)c(C)c1/C=C/C(=O)OCC(=O)N1CC(=O)Nc2ccccc21 | -8.8 | .
COCC(C)NCc1ccccc1C (stereo unspecified) | -0.6 | 0.883
Cn1cnnc1SCC(=O)C(C)(C)C | -5.4 | .
COc1ccc(-c2noc(CN(C(C)=O)C3CCCCC3)n2)cc1 | -1.3 | -0.714
COc1ccc(-c2nc(=O)[nH]c(=O)[nH]2)cc1 | 1.2 | .
O=C(CNC(=O)c1ccccc1)NCc1ccco1 | -0.6 | 0.462
CCC(C(=O)N1CCN(c2cccc(Cl)c2)CC1)c1ccccc1 (stereo unspecified) | 2.2 | -0.222
Fc1ccc(N2CCN(c3ncc4c(n3)CCNC4)CC2)cc1 | -0.2 | -0.26
C=C(C)CC1C(=O)N(S(=O)(=O)c2ccccc2Cl)N=C1C (stereo unspecified) | 0.1 | .
CCOC(=O)C1=C(CSc2nc3cc(C(=O)OCC)ccc3n2CC)NC(=O)NC1C (stereo unspecified) | 0.4 | .
Cc1noc2ncnc(N(CCO)c3ccccc3)c12 | 0.0 | .
COc1ccc(N2CCN(/C=C(\C#N)c3nc4ccccc4s3)CC2)cc1 | -43.1 | 2.7
CC1=C(C(=O)OC2CC(C(C)C)CCC2C)C(CC(=O)O)C(=O)N1 (stereo unspecified) | 4.0 | 0.0175
O=C1c2ccccc2C(=O)N1CCN1CCN(CCN2C(=O)c3ccccc3C2=O)CC1 | -1.0 | 0.293
CC(C)CC(NS(=O)(=O)c1ccc2c(c1)oc(=O)n2C)C(=O)NCc1ccco1 (stereo unspecified) | 0.8 | -0.337
Cc1nc(Cl)c(N)c(Cl)n1 | 1.3 | .
COc1ccc(CC(=O)NCC2COC3(CCCCC3)O2)cc1OC (stereo unspecified) | 2.8 | -0.943
CC1CCCN(CC(O)CN)C1 (stereo unspecified) | 3.0 | -0.967
CN1CCN(S(=O)(=O)c2ccc(NC(=O)c3ccncc3)cc2)CC1 | 1.6 | 0.92
Cc1c(Cl)cccc1NC(=O)c1cccnc1Cl | 2.9 | .
O=C(Cn1ncc2c1-c1ccoc1CC2)NCc1ccccc1Cl | 9.6 | 0.012
Cc1noc(/C=C/N(C)C)c1S(=O)(=O)N(CCc1ccccc1)Cc1ccccc1 | -0.3 | -1.37
O=C1OCCC1Sc1ncnc2c1cnn2-c1ccccc1 (stereo unspecified) | -0.5 | .
O=C(CSc1nnc(-c2ccco2)o1)OCc1cc(=O)n2c(n1)sc1ccccc12 | -1.3 | .
CC(SC#N)C(=O)C12CC3CC(CC(C3)C1)C2 (stereo unspecified) | -0.6 | 1.27
CC1Sc2ccc(C(=O)N=c3sc4ccccc4n3C)cc2NC1=O (stereo unspecified) | 1.2 | .
CC1CCc2sc(NC(=O)C(Cc3ccccc3)Cc3ccccc3)c(C#N)c2C1 (stereo unspecified) | 2.0 | .
COc1ccccc1-n1ccn(CC#N)c(=O)c1=O | -0.1 | -1.12
CC(C)(C)NC(=O)CN1CCN(C(=O)CN2CCc3ccccc32)CC1 | 0.4 | .
CCOC(=O)N1CCN(c2ccc(NCc3cc4ccc(OC)cc4[nH]c3=O)cc2)CC1 | -0.7 | 1.21
CC(C)CCSc1nc(N)c2c3c(sc2n1)CCCC3C (stereo unspecified) | 2.0 | .
CCc1nn(C)c2c(=O)c(=O)c2n(C)[nH]1 | 12.5 | .
CCn1c(SCc2cc(=O)n3ccsc3n2)nnc1-c1cccs1 | 3.8 | .
Cc1cc(C)nc(N=Nc2cc(C(C)(C)C)c(O)c(C(C)(C)C)c2)n1 | 2.1 | 0.122
O=C1/C(=C/C=C/c2ccco2)SC(=S)N1C1CCCCC1 | -5.7 | 0.711
CCCC(=O)NCCc1cn2ccc(C)cc2n1 | 1.2 | 0.254
COC(=O)N1N=C(C2CCCCC2)CC1(O)C(F)(F)F (stereo unspecified) | 3.7 | -0.332
Cc1ccc(NC(=O)c2c(-n3c(C)ccc3C)sc3c2CCCC3)cc1 | 2.1 | .
Cc1cc(=O)[nH]c(SCC2COC3(CCCCC3)O2)n1 (stereo unspecified) | 3.7 | .
CCOc1ccc(CN(C)CC(O)COCc2ccc(OC)cc2)cc1OC (stereo unspecified) | 0.8 | .
Cc1nc(NC(=S)NC(=O)c2ccc(-c3cccc(Cl)c3)o2)ccc1Br | -0.1 | -1.56
CCOC(=O)CSc1cc(Nc2ccc(Br)cc2)ncn1 | -6.0 | 0.5
CCOC(=O)c1c(-c2ccc(OC)cc2)oc2ccc(OCC)cc12 | 2.5 | -0.083
CCNc1nc(OC)nc(SCC(=O)OC)n1 | 0.7 | -0.74
CC(=O)OCC(=O)CC12CC3CC(CC(C3)C1)C2 | 5.4 | .
CC1(C)CC(=O)C=C(NNC(=O)COc2ccccc2)C1 | -1.2 | -0.285
O=C(Nc1ccccc1)OC(CN1CCCCC1)C(F)(F)F (stereo unspecified) | . | -0.232
COc1ccc(N2CCN(C(=O)c3cccs3)CC2)cc1 | -0.5 | -1.31
N#C/C(=N\Nc1cccc(F)c1)C(=N)N1CCCCC1 | 1.2 | 0.742
O=C(/C=C/c1ccc2ccccc2n1)OCC(=O)N1CCN(S(=O)(=O)c2ccccc2)CC1 | -2.3 | .
CCc1cc2c(=O)c(-c3nncn3-c3ccccc3)coc2cc1O | -2.5 | .
CCSc1nc2ccccc2n1C(=O)c1ccc(Cl)cc1 | -2.4 | .
Further entries
SMILES | Ab BasE inh | KSHV LANA nucl
O=C(NC(=O)N1CCN(c2ccc(F)cc2)CC1)c1ccccc1 | 1.0 | -0.659
O=C(NC(=O)c1ccccc1C(F)(F)F)NN1CCOCC1 | 1.7 | -0.345
C(=NN1CCN(Cc2ccccc2)CC1)c1ccccc1 | -0.6 | 0.46
COc1ccccc1NC(=O)C1Sc2nnc(-c3ccccc3)n2NC12CCCCC2 (stereo unspecified) | 1.5 | 0.952
O=C(NCc1ccccc1)C1C2C=CC3(CN(Cc4ccccc4Cl)C(=O)C13)O2 (stereo unspecified) | -0.5 | 0.294
O=C1N=c2ccccc2=C1N=Nc1c(O)[nH]c2ccccc12 | 0.9 | 1.12
O=S1(=O)CCN(C2CCCCCC2)CC1 | . | -0.504
C#CCSc1nc2c(c(=O)[nH]1)C(c1ccccc1)CC(=O)N2 (stereo unspecified) | -1.3 | 0.404
CCCNC1=C(c2ccc(OC)cc2)C(=O)c2ccccc21 | 1.2 | 0.482
CCOC(=O)N1CCC(NS(=O)(=O)c2cccs2)CC1 | 0.2 | .
CCN1C(=O)CC(C(=O)Nc2ccccc2)SC1=Nc1ccccc1 (stereo unspecified) | 8.2 | .
O=C(O)CN1CCCCC1 | 5.2 | 0.248
Cc1ccc(C(O)COC2=NCNc3cc(Cl)ccc32)cc1 (stereo unspecified) | 1.9 | .
CCOC(=O)Cc1nn(Cc2ccccc2)c(=O)c2ccccc12 | 1.7 | -0.325
O=C(Cn1nc(-c2ccco2)ccc1=O)NCCc1ccccc1 | 0.6 | -1.25
COC(=O)C(C)N(c1ccc(C)cc1)S(C)(=O)=O (stereo unspecified) | 1.6 | 0.63
Nc1nc2n(n1)C(=O)CC(c1ccccc1)N2 (stereo unspecified) | -1.3 | 0.24
Cc1ccc(N2C3CCCCCN3CC2(O)c2ccc(Cl)cc2)cc1 (stereo unspecified) | -1.3 | .
c1cc(CN2CCCCCCC2)cs1 | -0.3 | -0.556
Cc1ccc2c(c1)c1c3n2CCN(C(N)=O)C3CCC1 (stereo unspecified) | 0.1 | 0.286

Gathered by group: those above with fluorine
SMILES | Ab BasE inh | KSHV LANA nucl
CSc1ncc(C(=O)NC2CCN(Cc3ccccc3)CC2)c(C(F)(F)F)n1 | -3.0 | -0.184
O=C1C2=C(c3ccccc3)c3cc(F)ccc3C2Sc2ccccc21 (stereo unspecified) | 1.2 | .
Fc1ccc(N2CCN(c3ncc4c(n3)CCNC4)CC2)cc1 | -0.2 | -0.26
COC(=O)N1N=C(C2CCCCC2)CC1(O)C(F)(F)F (stereo unspecified) | 3.7 | -0.332
O=C(Nc1ccccc1)OC(CN1CCCCC1)C(F)(F)F (stereo unspecified) | . | -0.232
N#C/C(=N\Nc1cccc(F)c1)C(=N)N1CCCCC1 | 1.2 | 0.742
O=C(NC(=O)N1CCN(c2ccc(F)cc2)CC1)c1ccccc1 | 1.0 | -0.659
O=C(NC(=O)c1ccccc1C(F)(F)F)NN1CCOCC1 | 1.7 | -0.345

(next part)
SMILES | Ab BasE inh | KSHV LANA nucl
O=C(Cc1ccc2c(c1)OCCO2)N/N=C/c1ccc[nH]1 | 5.0 | .
Cc1cc(C)c2ccc(NN)nc2c1O | 0.7 | .
COc1cccc(C(=O)COc2nc(-c3cccs3)cc(-c3ccco3)c2C#N)c1 | -3.5 | 0.361
CC(C)[C@H](NC(=O)c1ccccc1)C(=O)N1CCc2ccccc21 | -2.5 | .
O=C(CSc1cccc[n+]1[O-])NC(=O)NCc1ccccc1 | -1.3 | .
S=c1[nH]nc(CCCOc2ccc(Cl)cc2Cl)o1 | 3.0 | 1.07
C/C(N)=C(/C#N)C(=O)CSc1ccc2c(c1)OCCO2 | -0.1 | .
Cc1cccc(N(C)S(=O)(=O)c2cc(Br)cnc2N)c1 | -0.5 | -0.868
Fc1ccc(NC(=S)N2CCCCC2)cc1 | 2.9 | 0.34
CCc1ccc(C(=O)NCc2cccs2)cc1 | -1.0 | .
CCS(=O)(=O)c1ccc2oc(=O)c(/C=C(\O)c3ccco3)nc2c1 | 0.1 | -0.288
Cc1nnc(SCC(=O)Nc2sc3c(c2C(N)=O)CCC3)n(N)c1=O | 1.3 | .
N#CCC(=O)NCc1ccccn1 | 1.9 | .
